Assay outcomes as filed in PubChem.
VACV mCherry inh: vaccinia inhibition (mCherry reporter); Vaccinia virus mCherry reporter infection, fluorescence; about a quarter of the inactives have no number; Potency, µM (doses to about 36.5 µM), inactives show at the highest dose activity change, negative = inhibition, actives largely listed as inhibitors; 310,000 tested, 0.63% active; active = well fitted inhibition curve with a large enough effect; inconclusive = small, poorly fitted or top-dose-only effect; inactive = no such curve, though single readings can be large or run the other way; tested in A549 cells; further: nearly all actives have a fitted effect of over 35% in size; inactives centre near -10
Vaccinia Venus: inhibitors of vaccinia virus (Venus reporter) | Vaccinia virus Venus reporter expression, fluorescence | Potency, µM (highest dose often 36.5 µM), for the others: top-dose activity change, negative = inhibition, most hits filed as inhibitors | 330,000 tested, 0.46% active | AID 720580; active means well fitted inhibition curve with a large enough effect; inconclusive means small, poorly fitted or top-dose-only effect; inactive means no such curve, though single readings can be large or run the other way; tested in A549 cells; further: nearly all actives have a fitted effect of over 30% in size; inactives centre near -10
An asterisk follows results filed as active; i = inactive; u = inconclusive; x = not tested or not shown; & = joins results of further samples; [ ] = dose if it differs, or a comment. On the % scale 0 is the no-effect control and ±100 the full control effect; potency means the concentration at half of the fitted maximal effect. This is a random part of the collection; overall some 0.82% were active at least once.

SMILES,VACV mCherry inh,Vaccinia Venus
CC(=O)N1c2ccc(S(=O)(=O)N3CCCC(C(=O)Nc4ccc(F)cc4)C3)cc2CC1C (stereo unspecified),-22.9%,u
COc1ccc(NC(=O)CCCSc2nc(-c3ccco3)cc(C(F)(F)F)n2)cc1OC,-27.2%,-24.3%&-21.9%
CCOC(=O)c1sc(NC(=O)c2ccc3nc[nH]c3c2)nc1C,i,-6.4%
COc1ccc(Cn2c(O)cc(=O)[nH]c2=O)cc1,i,-6.7%
Cc1cc(=O)n(CNC(=O)c2ccccc2)c(=S)[nH]1,-17.6%,-13.0%
O=C(CN1C(=O)COc2ccc(S(=O)(=O)N3CCCC3)cc21)N1CCN(c2cccc(C(F)(F)F)c2)CC1,-9.5%,-14.3%
Cc1ccc(S(=O)(=O)NCCC(=O)NC2CCCCCC2)cc1C,-2.3%,-12.2%
C=N[C@@H](C(=O)N[C@@H]1C(=O)N2[C@@H]1SC(C)(C)[C@@H]2C(=O)O)c1ccccc1,-9.1%,-7.5%
Cc1noc(C)c1CSc1nc2ccccc2[nH]1,x,u
COc1ccc(C(C#N)N2CCCCCC2)cc1OC (stereo unspecified),-15.0%,-7.7%
O=C(Nc1cc(-c2ccccc2)sc1C(=O)O)c1cccc(F)c1,-10.3%&-8.3%,-27.2%&-16.9%
FC(F)(F)c1nnc2ccc(NCc3cccnc3)nn12,i,-5.9%
Cc1cnc(C(=O)OCC(=O)NC2CCCCCC2)cn1,-6.5%,4.5%
Cn1c(=O)c2c(SCC(=O)N3CCCCC3)nc(-c3ccccc3F)nc2n(C)c1=O,-11.9%,-20.4%
COc1ccc(N2CC(C)Cn3c2nc2c3c(=O)n(CCN3CCOCC3)c(=O)n2C)cc1 (stereo unspecified),x,-10.2%
O=S(=O)(NCc1csc(-c2cccnc2)n1)c1ccc2c(c1)OCCO2,x,-27.0%
O=C(CNC(=O)c1ccc(Cl)cc1Cl)NCC1CCCO1 (stereo unspecified),-1.9%,-5.6%
Cc1ccc(O)c(C(=O)c2cc(C(=O)NCCC(C)C)c(=O)n(CCC(C)C)c2)c1,i,-10.7%
O=C(CCc1c[nH]c2ccccc12)NCCc1ccc2c(c1)OCCO2,-23.5%,-7.5%
CCN1C(=O)c2ccccc2S(=O)c2ccc(C(=O)N3CCN(c4cc(Cl)ccc4C)CC3)cc21 (stereo unspecified),-14.3%,-11.9%
Cc1ccccc1C(=O)NC(CC(C)C)C(=O)NCC(C)(C)N1CCOCC1 (stereo unspecified),i,-19.9%
CCn1nc(C)c(CN2CCC3(CCC(CNC(=O)c4ccccc4)O3)CC2)c1C (stereo unspecified),-5.6%,-5.7%
CCCOCn1cc(F)c(=O)[nH]c1=O,-14.7%,-1.4%
COc1ccc(-c2oc(=O)c3cc(OC)c(OC)cc3c2/C=C/c2cccc([N+](=O)[O-])c2)cc1,u,u
O=c1c2ccccc2nc(-c2ccco2)n1-c1ccncc1,x,-10.2%
OC(Cc1ccccc1)c1ncc(-c2ccc(Cl)cc2)[nH]1 (stereo unspecified),-11.8%,u
COc1ccc(CC(=O)OCC(=O)c2c(N)n(C)c(=O)n(C)c2=O)cc1OC,-1.2%,-6.1%
C=CCN(c1ccccc1C(=O)O)S(=O)(=O)c1ccc(NC(=O)OC)cc1,i,2.7%
CCN1CCN(C(=O)c2ccc3c(c2)N(Cc2ccc(Cl)cc2)C(=O)c2ccccc2S3=O)CC1 (stereo unspecified),-10.6%,-10.3%
CCN(CC)C(=O)C1=C(C)Nc2nc3ccccc3n2C1c1ccccc1F (stereo unspecified),-10.5%,-8.5%
Cc1cc(Sc2ccc(Cl)cc2)nc2ccccc12,-21.5%,-10.7%
CCCCOc1ccc(CN2C(=O)C(=O)c3cc(C)ccc32)cc1OC,u,u
O=c1[nH]c(C(F)(F)F)nc2ccccc12,x,-17.2%
CCOC(=O)c1c(-c2ccc(C)cc2)cn2ccccc12,x,-27.7%
O=C(CSc1nnc(Cc2ccccc2)o1)N1CCOCC1,-7.2%,-4.6%
O=C(N/N=C/c1ccc(Br)s1)c1c[nH]c2ccccc12,-11.3%,-24.6%
COc1ccc(-c2ccc(-c3noc(-c4cccs4)n3)c(OC)n2)cc1,i,-10.5%
O=C(NCc1ccc2c(c1)OCO2)C1CC(c2ccccc2O)=NO1 (stereo unspecified),-12.8%,-6.7%
CS(=O)(=O)N(CC(=O)N1CCCC1)c1ccc(Cl)cc1Cl,-15.2%,-7.2%
O=C(c1ccncc1)N1CCC2(CCC(CNC(=O)C3(N4CCOCC4)CCCCC3)O2)CC1 (stereo unspecified),5.1%,10.4%
COc1ccc(C(CC(=O)N2CCCCC2)c2c(O)cc(OC)cc2OC)cc1 (stereo unspecified),-29.0%,-15.2%
c1ccc2c(c1)CSc1ccccc1N2,-15.2%,0.7%
Cc1ccc(CSCc2ccc(C(=O)NCCCN3CCOCC3)o2)cc1,-5.1%,-13.3%
COc1cc(C2CC(=O)N3CN(Cc4ccco4)CSC3=C2C#N)ccc1OCc1ccccc1 (stereo unspecified),-12.4%,15.0%
CC(c1ccccn1)N(C)C(=O)c1ccc2nc(Cc3cccc(Cl)c3)oc2c1 (stereo unspecified),-8.9%,-11.0%
CCNC(=S)NNC(=O)c1ccccn1,u,u
CC(C)NC(=O)N(C)C[C@H]1Oc2ccc(NS(=O)(=O)c3ccc(Cl)cc3)cc2CC(=O)N([C@@H](C)CO)C[C@@H]1C,-8.9%,-1.2%
CCOC(=O)c1c(C)[nH]c(C)c1C(=O)COC(=O)/C=C/c1ccco1,-13.5%,-13.8%
Cc1nc2ccn(Cc3cccs3)c(=O)c2cc1C(=O)NCc1ccc(Br)cc1,-23.5%,-20.1%
COc1cc(Cl)ccc1OC1(C)CCN(Cc2c(F)cccc2F)C1 (stereo unspecified),1.6%,-10.9%
CC1CCCCC1NC(=O)CSc1nnnn1-c1ccccc1 (stereo unspecified),-20.6%,-23.3%
CC(=O)NS(=O)(=O)c1ccc(NC(=O)/C=C/c2cn(-c3ccccc3)nc2-c2ccccc2)cc1,i,3.3%
CCOC(=O)C1CCN(Cc2ccc(Cl)c(Cl)c2)CC1,-8.8%,6.4%
CC(C)n1c(C(O)c2ccccc2)nc2ccccc21 (stereo unspecified),i,-12.6%
Cc1cc(C(=O)NP(=O)(N2CC(C)OC(C)C2)N2CC(C)OC(C)C2)c(C)n1C1CC1 (stereo unspecified),-29.8%,-20.0%
COCOc1cccc(CN2CCC2(C)C(=O)Nc2ccc3c(c2)OCO3)c1 (stereo unspecified),-1.7%,-6.3%
COc1ccc2c(c1)c(C(=O)CNc1nc(C)cs1)c(C)n2C,x,u
Cc1cc(C)cc(NC(=O)CCc2nnc3n(C)c(=O)c4sccc4n23)c1,-6.0%,-3.4%
CCOc1ccccc1NC(=O)c1cc(C(=O)c2cc(OC)ccc2O)coc1=N,-15.4%,-10.9%
Cc1ccc(C(=O)c2c(N)c(-c3nc(-c4ccc5c(c4)OCO5)cs3)c3ccccn23)cc1C,1.4%,4.8%

Continued.
SMILES,VACV mCherry inh,Vaccinia Venus
COc1cccc(-c2nc(SC(C(C)=O)C(=O)N(C)C)c3c(=O)n(C)c(=O)n(C)c3n2)c1 (stereo unspecified),-2.6%,-13.3%
COc1ccc(-n2cnnc2SCC(=O)N2CCN(c3ccccc3)CC2)cc1,x,-17.2%
O=C(NCCNc1ccccc1[N+](=O)[O-])c1cc(F)c(F)cc1Cl,-15.7%,-20.9%
CCCOC(=O)NC1C(NC(=O)OCCC)N(C)C(=O)N1C (stereo unspecified),-14.2%,-2.5%
Cc1ccc(C(=O)NN2C(=O)C3C4C=CC(C5CC45)C3C2=O)cc1 (stereo unspecified),-25.0%,-19.0%
CCC(Sc1nnc2c3ccccc3n(CC)c2n1)C(=O)Nc1ccc(NC(C)=O)cc1 (stereo unspecified),i[7.34 µM],-5.8%[7.34 µM]
NS(=O)(=O)c1ccc(CNC(=O)c2cccnc2Cl)cc1,i,-19.1%
O=C(Nc1ccc(C(F)(F)F)cc1)c1ccc(NC(=O)C2CCCO2)cc1 (stereo unspecified),-14.7%,-10.6%
CC(C)c1ccc(CN(C(=O)c2cc3ccccc3oc2=O)C2CCS(=O)(=O)C2)cc1 (stereo unspecified),-10.6%,-13.7%
CC1CN(Cc2nc3ccccc3c(=O)[nH]2)CC(C)O1 (stereo unspecified),-7.0%,-4.0%
COc1ccc2nc(N(Cc3cccnc3)C(=O)C3CCCCC3)sc2c1,i,-14.4%
O=c1cc(-c2cc(O)c(O)c(O)c2)oc2cc(O)cc(O)c12,-9.3%,0.0%
O=C(Nc1ccc2c(c1)OCCO2)Nc1ccc2c(c1)OCO2,-11.7%,-13.1%
CCn1c(C(=O)NC(C)c2ccc3c(c2)OCCO3)cc2sccc21 (stereo unspecified),21.3%,1.8%
Cc1cc(C)cc(NC(=O)CSc2nnc(NC(=O)C3CC3)s2)c1,-13.6%,2.5%
CCOc1ccc(C(=O)Nc2ccc(S(=O)(=O)N(Cc3ccccc3)c3ccccc3)cc2)cc1,-22.9%[7.34 µM],-27.4%[7.34 µM]
CCc1cccc(C)c1Nc1c(-c2ccc(F)cc2)nc2sccn12,-7.6%,-14.2%
COC(=O)/C(N=Nc1cccc(C(F)(F)F)c1)=C(\C)O,x,-15.1%
Cc1noc(C)c1CSc1ccc2ccccc2n1,-8.9%,-8.2%
COc1cccc(-c2cc3nc4c(c(NCC(C)(C)CN(C)C)n3n2)CCCC4)c1,u,-23.6%
CCC(=O)N1CCCC(C(=O)NCc2ccc(C(C)C)cc2)CC1 (stereo unspecified),0.7%,-0.6%
CC1CCCN(c2ccc(N)cc2C(N)=O)C1 (stereo unspecified),-8.7%,-2.3%
NC(=O)[C@@H]1CCCN1Cc1nc(-c2ccccc2)no1,i,-1.6%
CCCS(=O)(=O)NCc1c(C)ncc2c1CCN(C(=O)c1ccc(F)c(F)c1)C2,-11.0%,3.1%
COc1ccc(C(=O)Nc2nnc(SCc3cc(=O)c4cccc(F)c4[nH]3)s2)cc1,-20.8%,-29.7%
COc1ccc(OCCN2CCC(C(=O)NC(c3ccc(C)cc3)c3ccccn3)CC2)cc1 (stereo unspecified),-14.9%,-9.4%
Cc1cc(C)c(OCC(=O)NCC2COc3ccccc3O2)c(C)c1 (stereo unspecified),i,-6.6%
COc1cc(/C=C/C(=O)c2ccc(C)c([N+](=O)[O-])c2)cc(OC)c1O,u,-22.5%
CCCCCC(=O)Nc1ccc(N2CCN(S(C)(=O)=O)CC2)cc1,i,-12.8%
CCC(C)NC(=O)c1ccc(CNS(=O)(=O)c2ccc3c(c2)C(C)(C)C(=O)N3C)cc1 (stereo unspecified),-1.5%&-9.1%,2.4%&-7.7%
Cc1cc(C)c(Nc2ncccc2C(=O)O)c(C)c1,-6.8%,-10.5%
COc1cc(CN2CCC(C(N)=O)CC2)ccc1OCc1ccccc1,-4.2%,-20.9%
Cc1nnc(SCC(=O)Nc2ccc(N3CCN(S(C)(=O)=O)CC3)cc2)o1,-9.9%,6.3%
Cn1c(=O)[nH]c(=O)c2c1nc1n2CCS1,10.8%,4.1%
COc1cc(C(CC(=O)Nc2cccc(C)n2)N2Cc3ccccc3C2=O)cc(OC)c1OC (stereo unspecified),7.6%,-2.2%
CSc1cccc(N2CC(C(=O)NCCN3C(=O)S/C(=C\c4cccnc4)C3=O)CC2=O)c1 (stereo unspecified),i,-8.8%
CC(CCN1CCN(c2ccccn2)CC1)c1ccccc1 (stereo unspecified),-8.7%,-13.9%
Cc1ccc2oc(=O)c3cnn(CC(=O)N4CCN(c5cccc(Cl)c5)CC4)c3c2c1,2.4%,-3.2%
O=C(CCc1c[nH]c2ccccc12)OCC(=O)N1CCN(S(=O)(=O)c2ccccc2)CC1,-10.2%,-11.3%
COc1cc(/C=C/C(=O)Nc2cc(C(F)(F)F)ccc2Cl)cc(OC)c1OC,-29.3%,-20.6%

A portion taken from the entries so far, for reference:
SMILES,VACV mCherry inh,Vaccinia Venus
O=C(CCc1c[nH]c2ccccc12)OCC(=O)N1CCN(S(=O)(=O)c2ccccc2)CC1,-10.2%,-11.3%
COc1cc(/C=C/C(=O)Nc2cc(C(F)(F)F)ccc2Cl)cc(OC)c1OC,-29.3%,-20.6%

The list goes on.
SMILES,VACV mCherry inh,Vaccinia Venus
Cc1ccc(NC(=O)[C@H](Cc2ccccc2)NC(=O)[C@@H]2Cc3ccccc3CN2)c(C)c1,-22.4%,-9.1%
Cc1ccc(Nc2nc(N)nc(N)c2S(=O)(=O)c2ccccc2)cc1,-24.4%,-17.1%
CC(C)Nc1nnc(SCc2cc(=O)n3ccsc3n2)s1,-7.6%,-17.2%
CCOC(=O)C1=C(COC(=O)CCOc2ccc(C)cc2)NC(=O)NC1C (stereo unspecified),u,u
Cc1cc2oc(=O)cc(COC(=O)c3n[nH]c4ccccc34)c2cc1C,x,0.1%
COc1ccc(S(=O)(=O)NNC(=O)Nc2ccc(C)cc2)c(OC)c1,-14.0%,-6.6%
CC(C)CN(C(=O)c1cc2ccccc2o1)c1c(N)n(CC(C)C)c(=O)[nH]c1=O,i,-7.9%
